# Source: PubChem
# VACV Venus inh: inhibitors of vaccinia virus (Venus reporter). Vaccinia virus Venus reporter expression, fluorescence. Potency, µM (titrated, usually from 36.5 µM), without a hit: at the top dose activity change, negative = inhibition, hits mostly inhibitors. hit rate 0.46% among 330,000; active means well fitted inhibition curve with a large enough effect; inconclusive means small, poorly fitted or top-dose-only effect; inactive means no such curve, though single readings can be large or run the other way; tested in A549 cells; further: nearly all actives have a fitted effect of over 30% in size; inactives centre near -10
# VACV mCherry inh: vaccinia inhibition (mCherry reporter) | Vaccinia virus mCherry reporter infection, fluorescence; about a quarter of the inactives have no number | Potency, µM (highest dose often 36.5 µM), without a hit: top-dose activity change, negative = inhibition, most hits filed as inhibitors | hit rate 0.63% among 310,000 | AID 720579; active = well fitted inhibition curve with a large enough effect; inconclusive = small, poorly fitted or top-dose-only effect; inactive = no such curve, though single readings can be large or run the other way; tested in A549 cells; further: nearly all actives have a fitted effect of over 35% in size; inactives centre near -10
# An asterisk follows results filed as active; i = inactive; ? = inconclusive; . = no result given; & = joins results of further samples; [ ] = remark or other dose. On the % scale 0 is the no-effect control and ±100 the full control effect; potency means the concentration at half of the fitted maximal effect.
molecule	VACV Venus inh	VACV mCherry inh
COc1ccc(-c2nc(CNC(=O)NC3CCCCC3)c(C)o2)cc1	-18%	-20%
C/C(NCCCn1ccnc1)=C(\C#N)C(N)=O	8%	.
Cc1cc2c(n1-c1ccc(C(=O)NCc3cccc(Br)c3)cc1)CCC(C)C2 (stereo not given)	-20%	-26%
COC(=O)c1ccc(CNC(=O)COC(=O)/C=C/c2cc(OC)c(OC)c(OC)c2)cc1	-3%	i
CC(C)(C)OC(=O)NCC(=O)Oc1cc2oc(=O)cc(-c3ccccc3)c2cc1Cl	0%	-9%
Cc1ccc(NC(=O)CC(=O)Nc2ccc(C)c(C)c2)cc1C	-4%	-12%
O=C(CNC(=O)c1ccco1)NCC(=O)OCc1c(F)cccc1Cl	2%	-10%
CCN(CC)CC(O)COc1ccc2c(c1)c(C(C)=O)c(C)n2-c1ccccc1 (stereo not given)	-16%	-16%
CCc1ccc(N2C=C(C(=O)OC)C(c3cccc4ccccc34)C(C#N)=C2N)cc1 (stereo not given)	-8%	6.3µM*
O=C(O)CN(c1ccc2c(c1)OCCO2)S(=O)(=O)c1ccccc1	-16%	-17%
O=C(NCCN1CCOCC1)c1cc(Sc2ccc(F)cc2F)nc2ccccc12	2%	5%
O=C(NCCCN1CCN(c2ccccc2F)CC1)c1ccc2nc(Cc3ccccc3)oc2c1	-29%	-25%
Cc1ccc(/C=C(\C#N)C(=O)Nc2ccccn2)o1	-18%	-4%
CC(C)Cc1nc2n[nH]c(N)c2c2c1CCC2	-8%	-13%
CCOc1ccc(N(C(C)C(=O)NCc2ccco2)S(C)(=O)=O)cc1 (stereo not given)	-8%	i
CN(CCCNS(=O)(=O)c1cccc2cccnc12)Cc1ccccc1	-4%	i
COc1ccc(CNC(=O)/C=C/[C@H]2O[C@@H](n3cc(C)c(=O)[nH]c3=O)C[C@@H]2O)cc1	0%	7%
Cc1cccc(C(=O)Nc2nnc(S(=O)(=O)N3CCCc4ccccc43)s2)c1	-7%	-5%
OCC1(CCOc2ccccc2)CCN(Cc2cccn2-c2ncccn2)CC1	-8%	-2%
Cc1cc2nc(-c3nnnn3C3CCCCC3)c(=O)[nH]c2cc1C	-11%	11%

# One compound at a time, as listed above. Order of screens: VACV Venus inh, VACV mCherry inh
# Profile of Cc1cc2nc(-c3nnnn3C3CCCCC3)c(=O)[nH]c2cc1C = -11%, 11%
# Profile of Cc1cccc(C(=O)Nc2nnc(S(=O)(=O)N3CCCc4ccccc43)s2)c1 = -7%, -5%
# Profile of Cc1ccc(/C=C(\C#N)C(=O)Nc2ccccn2)o1 = -18%, -4%
# Profile of O=C(NCCN1CCOCC1)c1cc(Sc2ccc(F)cc2F)nc2ccccc12 = 2%, 5%
# Profile of CCOc1ccc(N(C(C)C(=O)NCc2ccco2)S(C)(=O)=O)cc1 (stereo not given) = -8%, i

# Further entries:
molecule	VACV Venus inh	VACV mCherry inh
COc1ccc(-c2c(C(F)(F)F)oc3c(CN4CCN(C)CC4)c(O)ccc3c2=O)cc1	-11%	.
C/C(=N\NC(=O)c1ccc(NS(=O)(=O)c2cccs2)cc1)c1ccc(O)cc1O	?	?
CCc1cccc(NC(=O)CN2C(=O)COc3ccc(S(=O)(=O)N4CCC(C)CC4)cc32)c1	-10%	-10%
CC(C)(C)NC(=S)NCCc1ccccc1	-6%	-14%
Cc1ccc(C)c(S(=O)(=O)N2CCN(C(=O)Cn3[nH]c(=O)c4ccccc4c3=O)CC2)c1	-12%	4%
CCOc1ccc(NC(=O)c2c(NCc3ccc(C)o3)sc3c2CCCCC3)cc1	-3%[7.34 µM]	-8%[7.34 µM]
Cc1cc(C)nc(NC(=NCCc2c[nH]c3ccccc23)NC(=O)C(C)(C)C)n1	-19%[7.34 µM]	-13%[7.34 µM]
CN(C(=O)/C=C/c1ccc2c(c1)OCO2)c1ccccc1	-13%	i
Cc1cc(C)c(S(=O)(=O)/N=C2/C=C(SCC(=O)O)C(=O)c3ccccc32)cc1C	10%	-13%
CCOC(=O)c1sc(NC(=O)Cn2nnc3sc4c(c3c2=O)CCC(C(C)(C)C)C4)nc1C (stereo not given)	-13%	-5%
Cc1cccc(NC(=O)C(=O)NCC(c2ccc3c(c2)OCO3)N2CCN(c3ccccc3)CC2)c1 (stereo not given)	-6%	-9%
O=C(NCCc1ccccc1)c1ccc2c(c1)CCN2S(=O)(=O)c1ccc(Br)cc1	-11%	-15%
S=C1NC(c2ccccc2)=NCN1c1ccccc1	-14%	i
NC(c1csc(Nc2cc(Oc3ccccc3)ncn2)n1)C1CCCCC1 (stereo not given)	?	?
C[C@H]1COc2cccc(N3CCN(Cc4ccccc4F)CC3)c2S(=O)(=O)N1	-2%	i
COC(=O)C1=C(c2ccc(OCc3ccccc3)cc2)C[C@@H]2CC[C@H]1N2C(=O)NCc1ccccc1	-23%	?
O=C(CCCN=C1NS(=O)(=O)c2ccccc21)OCC(=O)c1ccccc1	1%	-8%
O=C1/C(=C\c2ccc(O)c(O)c2)N=C2CCCCCN12	-21%	-27%
COc1ccc(S(=O)(=O)N2CCOCC2)cc1NC(=O)CN1CCCCCC1	-14%	-7%
Cc1sc2nc(CSCC(=O)N(CCC#N)c3ccccc3F)[nH]c(=O)c2c1C	-23%	-23%
O=C(O)CCCC(=O)Nc1cccc(C(=O)Nc2ccccc2C(=O)O)c1	-4%	9%
CCOC(=O)n1c(=O)n(C)c2ccc(Br)cc21	-2%	-6%
Cc1nnc(NC(=O)c2cccc(F)c2)s1	-14%	.
CCCN=C1N(C)C[C@@H]2[C@@H]3C(=O)N(C)C(=O)[C@@H]3[C@](Cc3ccccc3)(C(=O)OC)N12	13%	-18%
C=CCNc1ncnc2c1ncn2[C@H]1CN(C2CCCC2)C[C@@H](CO)O1	-2%	8%
COc1ccc(CNC(=O)c2cc3c(=O)n(Cc4ccco4)ccc3nc2C)cc1	-13%	-5%
CCN(c1ccccc1)S(=O)(=O)c1ccc(NC(=O)c2cc(=O)c3cc(C)c(C)cc3o2)cc1	-6%	-5%
COC(=O)C(Cc1cnc(Cl)s1)(C(=O)OC)c1ccccc1[N+](=O)[O-]	-6%	-12%
OC(c1ccccc1)c1nc(-c2ccccc2)cs1 (stereo not given)	-11%	i
CCOC(=O)C1(C)CCCN(C(=O)c2ccc3c(c2)OCO3)C1 (stereo not given)	-3%	7%

# Look-ups from the results shown.
# Reading of O=C1/C(=C\c2ccc(O)c(O)c2)N=C2CCCCCN12 under VACV mCherry inh: -27%
# Reading of Cc1sc2nc(CSCC(=O)N(CCC#N)c3ccccc3F)[nH]c(=O)c2c1C under VACV mCherry inh: -23%

# Continued:
molecule	VACV Venus inh	VACV mCherry inh
COc1cc(C)c(CNc2cccc(C)c2)cc1C	-13%	-17%
CC1CCCC(C)N1CCCNC(=O)C1CCCN(c2ncnc3c2nc2n3CCCCC2)C1 (stereo not given)	-22%	-12%
COc1ccc(S(=O)(=O)N2CCN(C(=O)NCc3ccc(OC)c(OC)c3)CC2)cc1	-2%	-3%
C[C@H](NC(=O)c1ccccc1Cl)C(=O)OCc1cn2cc(Cl)ccc2n1	-9%	-22%
Cc1nnc(-c2cnn(C)c2N)n1Cc1ccc2c(c1)OCO2	6%	-5%
COCCNC(=O)C12CC3CC(C1)CC(c1ccccc1)(C3)C2	-17%	0%
O=C(OCc1cc2ccccc2[nH]c1=O)c1ccncc1	-18%	.
c1ccc2c(CCNc3ncnc4nc[nH]c34)c[nH]c2c1	?	?
COCCN1C2=C(C(=O)CC(C)(C)C2)C(c2ccc(OC)c(OC)c2)C2=C1CC(C)(C)CC2=O	-8%	i
O=C(O)Cc1cn(Cc2cccc(Cl)c2)c2ccccc12	-12%	-15%
Cc1cccc(N2CCN(C(=O)c3cc(S(=O)(=O)N4CCOCC4)cn3C)CC2)c1C	-17%	5%
CC[C@@]12C(=O)N(c3cccc(C)c3)C(=O)N1[C@H](c1ccc(OC)cc1)[C@@H]1C(=O)N(C(C)(C)C)C(=O)[C@@H]12	-16%	i
CC[C@]1(C(=O)OC)[C@H]2C(=O)N(C)C(=O)[C@H]2[C@H]2CN=C(SCc3ccc(C#N)cc3)N21	-18%	-22%
Cc1ccc(NC(=O)c2ccc(F)cc2F)cc1	-8%	5%
O=C(Nc1ccc2oc(=O)ccc2c1)c1ccc(-c2ccc(Cl)cc2)o1	-11%	-15%
CCCCN(C)C1=CC2=CC(=C(C#N)C#N)CCC2CC1 (stereo not given)	.	-8%
CCOc1ccc(NC(=S)NN2C(C)CCCC2C)cc1 (stereo not given)	-10%	-3%
COc1ccc(/C=C2\SC(=O)N(CCNC(=O)C3=COCCO3)C2=O)cc1	?	?
Cc1sc(-n2c(C)cc(/C=C3\SC(=S)NC3=O)c2C)c(C#N)c1C	-19%	-24%
O=C1NCCCC1C(=O)N/N=C/c1ccc(Cl)cc1 (stereo not given)	-12%	i
CCCOC(=O)/C(=C\c1ccc([N+](=O)[O-])o1)NC(=O)c1ccccc1	?	?
COc1ccccc1-n1cnnc1SC1CCOC1=O (stereo not given)	1%	.
Nc1c(Cl)cc(C=O)cc1Cl	-2%	-10%
CN(C)C1CCN(C(=O)c2cccc(OC3CCN(S(=O)(=O)N(C)C)CC3)c2)C1 (stereo not given)	3%	-7%
Cc1cc(S(=O)(=O)NC2CCCCC2)ccc1OCC(=O)NCC1CCCO1 (stereo not given)	-9%	-11%
CCN(CC)CCCN=Cc1c(O)n(-c2ccccc2F)c(=O)[nH]c1=O	-11%	31%[activator][1.46 µM]
CCOc1ccc(N2CC(NC(=O)C3CC3)CC2=O)cc1 (stereo not given)	-6%	-1%
CC/C(=N\NC(=S)Nc1ccc(OC)cc1)c1ccc(OC(F)F)cc1	-20%	i
COc1cccc(S(=O)(=O)N2CCN(c3nc(-c4cccs4)nc4ccccc34)CC2)c1	-11%	-5%
O=C(Nc1cccc(S(=O)(=O)N2CCCCC2)c1)c1ccc2c(c1)OCO2	-11%	-10%
CCN(CC)S(=O)(=O)c1ccc(NC(=O)CCC2CCCCC2)cc1	?	?
O=c1cc(NCc2ccco2)[nH]c(=O)n1-c1ccc(Br)cc1	-6%	i
S=c1[nH]nc([C@@H]2C[C@H]2c2ccccc2)n1-c1ccccc1	1%	-6%
CCN(CC)C1CCN(C(=O)CCc2nnc(CCCCc3ccccc3)o2)C1 (stereo not given)	-7%	-11%
CCN(CC(=O)Nc1ccc2c(c1)OCCO2)Cc1cc(=O)n2ccsc2n1	-3%	-4%
Cc1ccnc(NC(=O)c2ccc(Cl)c([N+](=O)[O-])c2)c1	-5%	-14%
Cc1ccccc1C(=O)NC1CCN(CC(=O)NCc2ccc(F)cc2)CC1	-8%	i
O=C(Nc1ccc(Cl)c(C(F)(F)F)c1)[C@@H]1CC=C[C@@H]2CCN(Cc3ccccc3)C(=O)[C@@H]21	-21%&-21%	0%&-7%
COC(=O)c1ccccc1C(=O)N1CCCC(CCC(=O)NCc2ccc(F)c(F)c2)C1 (stereo not given)	5%	-4%
CC(=O)N1CCc2cc(S(=O)(=O)NCCC(=O)NCCc3ccccc3)ccc21	-19%	-2%
Cc1cc(O)c(/C=N/Nc2ccc(Cl)cc2)c(=O)o1	-18%	.
COc1ccc(CN2C(=O)CCC2(C)c2nnnn2Cc2ccccc2)cc1OC (stereo not given)	-6%	-11%
CCc1nc(SCc2cc(=O)c3cc(F)ccc3[nH]2)n[nH]1	1%	1%
COc1ccccc1-c1cnc(C(O)c2cccc(C)c2C)[nH]1 (stereo not given)	-2%	i
O=C(c1ccc2nccnc2c1)N1CCCC(N2CCN(c3ccc(F)cc3)CC2)C1 (stereo not given)	-19%	-18%
Cc1[nH]c2ccccc2c1C(c1ccccn1)c1c(C)[nH]c2ccccc12	-3%	-10%
CSC1=C(C#N)C(c2ccc(C)cc2)C2=C(CCCC2=O)N1 (stereo not given)	-13%	-12%
CCc1cccc(C)c1Nc1nc2ccccc2n2cnnc12	-10%	-6%
Cc1ccc(/C=N/NC(=O)CSc2nc3ccccc3c(=O)n2-c2ccccc2C)s1	-14%	-23%
COc1ccc(NC(=O)CSc2nnnn2C)cc1	-4%	i

# Three entries from above, field by field.
> COc1ccc(CN2C(=O)CCC2(C)c2nnnn2Cc2ccccc2)cc1OC (stereo not given)
- VACV Venus inh: -6%
- VACV mCherry inh: -11%

> CCc1nc(SCc2cc(=O)c3cc(F)ccc3[nH]2)n[nH]1
- VACV Venus inh: 1%
- VACV mCherry inh: 1%

> COc1ccccc1-c1cnc(C(O)c2cccc(C)c2C)[nH]1 (stereo not given)
- VACV Venus inh: -2%
- VACV mCherry inh: i

# Next section.
molecule	VACV Venus inh	VACV mCherry inh
CC(C)[C@H](NC(=O)[C@H](Cc1ccccc1)n1c(=O)[nH]c2ccccc2c1=O)C(=O)N[C@@H](Cc1ccccc1)C(=O)O	-9%	1%
CNC(=O)c1ccsc1NC(=O)c1ccc(Cl)s1	-7%	0%
CCCCCCCn1ccc(O)c(CC(=O)OC)c1=O	-12%	i
O=S(=O)(Nc1nc2ccccc2nc1N1CCN(c2ccccc2)CC1)c1ccc(F)cc1	-10%	i
COc1ccc(C(CNC(=O)c2ccc(NS(=O)(=O)c3ccc4c(c3)OCCO4)cc2)N(C)C)cc1 (stereo not given)	?	-6%
CC(C)CNC(=O)c1cc(S(=O)(=O)N2CCOCC2)ccc1N1CCCC1	-13%	-7%
